PD-1 reverse act: activators reversing PD-1 mediated T-cell inhibition | primary human CD4 T cells, PD-L1 beads, CellTiter-Glo 96 h | activation, % (no concentration beside the values) | 29,000 tested, under 10 active | AID 2316;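 active means replicate mean of 50% or more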;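 further: 0% = median vehicle wells and 100% = positive control; 100 nL library stock added to about 50 µL; numbers are from one replicate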
Hedgehog inh: blocks Sonic Hedgehog signaling | inhibition, % (no concentration beside the values) | Shh-LIGHT2 Gli-luciferase reporter, 30 h | 2.1% of 22,000 active;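 active means replicate mean of 65% or more; inconclusive means mean lower but half the replicates past it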;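 further: pathway switched on by Shh-conditioned medium diluted 1 in 25 in low serum; 100 nL library stock added to about 40 µL; 0% = median of neutral wells and 100% = positive control level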
YB-1 expression: YB-1 expression inhibition; U2OS, qRT-PCR YB-1 vs CDIP delta delta Cp, 16 h; stronger effect = higher value; zero = DMSO, each unit about twofold; delta delta Cp (YB-1 minus CDIP) (no concentration beside the values); 0.37% of 30,000 active; AID 434959;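 active means delta delta Cp rounded down to an integer at or above 3, about 3 SD of DMSO wells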;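 further: higher means less YB-1 transcript or more CDIP transcript relative to DMSO; stock transfer was 100 nL into about 100 µL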
MITF inhib: blocks MITF activity; TRPM1 promoter luciferase, luminescence, 24 h; inhibition, % (test concentration not listed); 0.28% of 37,000 active; AID 2240;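 active means most replicates at 85% or more, or half of them and the mean; inconclusive means half reach 85% but not the mean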;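 further: human melanocyte line stably carrying TRPM1 promoter luciferase reporter; 0% = vehicle wells and 100% = a positive control; the first replicate is given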
The depositor's hits bear a star; ? = inconclusive; · = no result given.

SMILES | PD-1 reverse act | Hedgehog inh | YB-1 expression | MITF inhib
C[C@@H]1CN([C@@H](C)CO)C(=O)c2cccc(NC(=O)Nc3ccc4c(c3)OCO4)c2O[C@H]1CN(C)Cc1ccccc1 | -6.6 | 15 | -0.82 | 35
COc1c(OC)c2c(C)cccc2oc1=O | 1.6 | -17 | 0.06 | -11
C[C@@H]1CN([C@H](C)CO)C(=O)Cc2cc(NC(=O)Cc3ccccc3)ccc2O[C@@H]1CN(C)Cc1ccncc1 | -4.4 | 31 | -0.017 | -8
Cc1noc(C)c1NC(=O)N(C)C[C@@H]1Oc2ccc(NS(=O)(=O)c3c(C)noc3C)cc2C(=O)N([C@@H](C)CO)C[C@H]1C | 1.5 | -22 | 0.34 | -10
COc1ccc(S(=O)(=O)Nc2ccc3c(c2)CC(=O)N([C@H](C)CO)C[C@H](C)[C@H](CN(C)S(=O)(=O)c2cccs2)O3)cc1 | -0.2 | 9 | -0.3 | -3
O=C1OC(c2ccc(O)cc2)(c2ccc(O)cc2)c2ccccc21 | · | 42 | 0.28 | 42
COc1ccc(S(=O)(=O)Nc2ccc3c(c2)CC(=O)N([C@@H](C)CO)C[C@H](C)[C@H](CN(C)Cc2ccc(C(=O)O)cc2)O3)cc1 | 1.4 | -2 | -0.044 | -7
C[C@H](CO)N1C[C@H](C)[C@@H](CN(C)CC2CCCCC2)Oc2ccc(NC(=O)Nc3ccc(F)cc3)cc2C1=O | 1.5 | -10 | -0.061 | -6
CC(Sc1ncnc2sc(-c3ccccc3)cc12)C(=O)Nc1ccccc1C(F)(F)F (stereo not drawn) | 4.7 | · | · | -9
C[C@@H]1CN([C@H](C)CO)C(=O)c2cc(NC(=O)Cc3cn(C)c4ccccc34)ccc2O[C@H]1CN(C)CC1CCCCC1 | -0.8 | 8 | 0.098 | 16
Cc1noc(C)c1S(=O)(=O)Nc1ccc2c(c1)C(=O)N([C@@H](C)CO)C[C@H](C)[C@H](CN(C)C(=O)Nc1ccc3c(c1)OCO3)O2 | 0.8 | · | 0.17 | 5
CC(C)NC(=O)N(C)C[C@@H]1Oc2c(NC(=O)C3CCOCC3)cccc2C(=O)N([C@@H](C)CO)C[C@@H]1C | 2.0 | -11 | 0.027 | 0
CC(C)NC(=O)Nc1cccc2c1O[C@H](CN(C)C(=O)Nc1ccc(F)cc1)[C@H](C)CN([C@H](C)CO)C2=O | · | -36 | 0.21 | 2
CS(=O)(=O)N1N=C(c2cccc(NS(=O)(=O)c3ccccc3)c2)CC1c1ccco1 (stereo not drawn) | -3.1 | · | · | 4
C=C(C(=O)O)C1CC=C(CCC(C)=O)[C@@H](C)CC1 (stereo partly drawn) | 1.4 | -11 | -1.1 | -9
C[C@@H]1CN([C@H](C)CO)C(=O)c2cccc(NC(=O)Nc3ccc(F)cc3)c2O[C@@H]1CN(C)Cc1ccccc1 | 0.5 | 31 | -0.27 | -10
C[C@@H]1CN([C@H](C)CO)C(=O)c2cccc(NC(=O)Nc3ccc(F)cc3)c2O[C@@H]1CN(C)S(=O)(=O)c1cccs1 | -1.3 | 49 | -0.46 | 5
O=C(O)C1CC(c2ccccc2)=C(c2ccccc2)CC1C(=O)c1ccccc1 (stereo not drawn) | 0.2 | -27 | -0.84 | 6
Cc1cc(C)c(NC(=O)CN(c2ccccc2)S(=O)(=O)N(C)C)c(C)c1 | 2.2 | · | · | 0
Cc1noc(C)c1NC(=O)N(C)C[C@H]1Oc2ccc(NC(=O)CCC(F)(F)F)cc2C(=O)N([C@@H](C)CO)C[C@H]1C | · | -22 | -0.019 | 1
C[C@H]1CN([C@@H](C)CO)C(=O)Cc2cc(NC(=O)CCC(F)(F)F)ccc2O[C@@H]1CN(C)Cc1ccc(C(F)(F)F)cc1 | 1.2 | -7 | -0.33 | -7
C[C@H]1CN([C@@H](C)CO)C(=O)c2cccc(NS(=O)(=O)c3ccccc3)c2O[C@H]1CN(C)S(C)(=O)=O | 1.8 | -9 | -0.029 | -5
COc1ccc(/C=C/C(=O)O[C@]2(C)CCC3C(C(=O)O)=CO[C@@H](O[C@@H]4O[C@H](CO)[C@@H](O)[C@H](O)[C@H]4O)[C@@H]32)cc1 (stereo partly drawn) | -1.2 | 15 | -0.73 | 9
C[C@@H]1CN([C@H](C)CO)C(=O)c2cccc(NC(=O)c3ccncc3)c2O[C@H]1CN(C)S(=O)(=O)c1ccc(F)cc1 | 3.2 | -2 | -0.48 | -9
Cc1ccc(S(=O)(=O)N(C)Cc2nc(-c3ccccn3)no2)cc1 | -0.2 | · | · | -14

Compound profiles, as listed above. Order of values: PD-1 reverse act	Hedgehog inh	YB-1 expression	MITF inhib
Shown for COc1ccc(S(=O)(=O)Nc2ccc3c(c2)CC(=O)N([C@H](C)CO)C[C@H](C)[C@H](CN(C)S(=O)(=O)c2cccs2)O3)cc1 → -0.2	9	-0.3	-3
Shown for Cc1noc(C)c1S(=O)(=O)Nc1ccc2c(c1)C(=O)N([C@@H](C)CO)C[C@H](C)[C@H](CN(C)C(=O)Nc1ccc3c(c1)OCO3)O2 → 0.8	·	0.17	5
Shown for COc1c(OC)c2c(C)cccc2oc1=O → 1.6	-17	0.06	-11
Shown for O=C(O)C1CC(c2ccccc2)=C(c2ccccc2)CC1C(=O)c1ccccc1 (stereo not drawn) → 0.2	-27	-0.84	6

Carrying on.
SMILES | PD-1 reverse act | Hedgehog inh | YB-1 expression | MITF inhib
C[C@H]1CN([C@@H](C)CO)C(=O)c2cc(NC(=O)CCC(F)(F)F)ccc2O[C@H]1CN(C)CC1CCCCC1 | -0.3 | -19 | -0.073 | -3
COc1ccc(C)cc1NC(=O)CN(c1cc(C)cc(C)c1)S(C)(=O)=O | -1.2 | · | · | 15
CC(C)NC(=O)N(C)C[C@@H]1Oc2c(NC(=O)c3nc4ccccc4s3)cccc2C(=O)N([C@@H](C)CO)C[C@H]1C | 1.2 | 11 | -0.023 | 9
CN(C)S(=O)(=O)c1ccc(C(=O)NCc2cccnc2)cc1 | 3.0 | · | · | -11
C[C@@H]1CN([C@H](C)CO)C(=O)c2cccc(NC(=O)c3ccncc3)c2O[C@@H]1CN(C)C(=O)Nc1ccc2c(c1)OCO2 | 0.2 | -9 | 0.075 | -6
CC(C)NC(=O)N(C)C[C@H]1Oc2ccc(NC(=O)Cn3cnnn3)cc2C(=O)N([C@H](C)CO)C[C@@H]1C | 1.2 | -19 | -0.42 | -1
Cc1noc(C)c1NC(=O)Nc1ccc2c(c1)C(=O)N([C@H](C)CO)C[C@H](C)[C@@H](CN(C)Cc1ccncc1)O2 | · | · | -0.064 | -13
C[C@H]1CN([C@@H](C)CO)C(=O)c2cc(NS(=O)(=O)c3cccs3)ccc2O[C@H]1CN(C)C(=O)Nc1cccc2ccccc12 | · | 26 | 0.18 | 0
COC(=O)C(C(CO)Cc1ccc(O)c(OC)c1)C(O)c1ccc(O)c(OC)c1 (stereo not drawn) | -5.4 | 5 | -0.19 | 14
COc1ccc(NC(=O)Nc2ccc3c(c2)CC(=O)N([C@@H](C)CO)C[C@H](C)[C@@H](CN(C)Cc2ccc(-c4ccccc4)cc2)O3)cc1 | · | 5 | 0.12 | 4
CC(C)NC(=O)Nc1cccc2c1O[C@@H](CN(C)C(=O)Nc1ccc(C(F)(F)F)cc1)[C@@H](C)CN([C@@H](C)CO)C2=O | 0.4 | 20 | 1.5 | 23
Cc1noc(C)c1NC(=O)Nc1ccc2c(c1)CC(=O)N([C@H](C)CO)C[C@@H](C)[C@H](CN(C)C(=O)Nc1ccccc1)O2 | -0.4 | · | 0.0085 | -9
CC(C)(C)OC(=O)N1CCN(Cc2ccccc2)CC1 | -0.2 | 4 | 0.035 | 31
CC(Oc1ccc(Cl)cc1Cl)C(=O)Nc1ccc2oc(-c3cccnc3)nc2c1 (stereo not drawn) | -3.1 | · | · | 47
COc1cc(OC)cc(-c2nnc(SCC(=O)N3c4ccccc4Sc4ccccc43)o2)c1 | 3.8 | · | · | 5
Cc1ccc2[nH]c(C)c(CCNC(=O)Nc3ccc(Cl)cc3)c2c1 | -2.8 | · | · | 30
Cc1ccc(S(=O)(=O)Nc2cccc3c2O[C@@H](CN(C)S(=O)(=O)c2ccc(C)cc2)[C@H](C)CN([C@H](C)CO)C3=O)cc1 | · | 4 | -0.2 | 2
COc1cccc(OC)c1CN(C)C(=O)c1cnc(Oc2ccccc2)cc1C(F)(F)F | 0.6 | 3 | 0.0081 | -16
Cc1cccc(N(CC(=O)NC(C)(C)C)S(=O)(=O)c2ccc(Cl)cc2)c1 | 1.5 | · | · | 11
Cc1noc(C)c1S(=O)(=O)N(C)C[C@@H]1Oc2c(NC(=O)c3ccc(-c4nccs4)cc3)cccc2C(=O)N([C@@H](C)CO)C[C@@H]1C | · | -31 | -0.066 | -5
C[C@H](CO)N1C[C@H](C)[C@H](CN(C)C(=O)NC2CCCCC2)Oc2ccc(NC(=O)Cc3ccccc3)cc2CC1=O | 0.6 | -24 | -0.21 | -21
CC(C)NC(=O)Nc1ccc2c(c1)C(=O)N([C@@H](C)CO)C[C@H](C)[C@@H](CN(C)Cc1ccc(Cl)c(Cl)c1)O2 | 2.4 | · | -0.13 | 0
C[C@@H]1CCCCO[C@@H](CN(C)C(=O)c2ccccc2)[C@@H](C)CN([C@H](C)CO)C(=O)c2cc(NS(C)(=O)=O)ccc2O1 | -1.0 | -5 | -0.23 | 3
COc1ccc(S(=O)(=O)Nc2cccc3c2O[C@@H](CN(C)S(=O)(=O)c2cccs2)[C@H](C)CN([C@@H](C)CO)C3=O)cc1 | 1.7 | 12 | 0.4 | 5
CNC[C@@H]1Oc2c(N)cccc2C(=O)N([C@@H](C)CO)C[C@@H]1C | 1.6 | 0 | 0.096 | 7
SMILES | PD-1 reverse act | Hedgehog inh | YB-1 expression | MITF inhib
CC(C)NC(=O)N(C)C[C@@H]1Oc2ccc(NC(=O)Nc3ccc(C(F)(F)F)cc3)cc2CC(=O)N([C@@H](C)CO)C[C@@H]1C | -0.2 | -6 | 0.017 | -17
O=C(CN1C(=O)C2C3C=CC(C4CC34)C2C1=O)Oc1ccccc1C(=O)Oc1ccccc1 (stereo not drawn) | 2.2 | · | · | 1
COc1ccc(CC(=O)NN2C(=O)CSCC2=O)cc1OC | 0.8 | -6 | 0.54 | -31
C[C@@H]1CN([C@H](C)CO)C(=O)c2cccc(NS(=O)(=O)c3cn(C)cn3)c2O[C@H]1CN(C)CC1CCCCC1 | · | 22 | -0.039 | 4
C[C@H](CO)N1C[C@H](C)[C@H](CN(C)S(=O)(=O)c2ccc(Cl)cc2)Oc2c(NC(=O)C3CCCCC3)cccc2C1=O | -0.4 | 103* | 0.32 | 9
C[C@@H]1CN([C@@H](C)CO)C(=O)c2cc(N(C)C)ccc2O[C@@H]1CN(C)S(=O)(=O)c1cccs1 | · | · | -0.19 | -18
C[C@H](CO)N1C[C@H](C)[C@H](CN(C)Cc2ccc3c(c2)OCO3)Oc2ccc(NC(=O)C3CC3)cc2C1=O | -0.7 | ? | 0.25 | 5
O=C(CSc1nnc2sc3ccccc3n12)Nc1c(Cl)cccc1Cl | -0.9 | · | · | -38
C[C@H]1CN([C@@H](C)CO)C(=O)Cc2cc(NC(=O)NC3CCCCC3)ccc2O[C@H]1CN(C)Cc1ccc2c(c1)OCO2 | -1.8 | -29 | -0.13 | -11
O=C(CCS(=O)(=O)c1ccc2ccccc2c1)Nc1ccccc1 | -1.5 | · | · | 8
C[C@@H]1CN([C@H](C)CO)C(=O)Cc2cc(NS(=O)(=O)c3cn(C)cn3)ccc2O[C@@H]1CN(C)Cc1ccc(-c2ccccc2)cc1 | · | -17 | -0.062 | -2
C[C@H]1CN([C@@H](C)CO)C(=O)c2cc(NC(=O)Cc3cn(C)c4ccccc34)ccc2O[C@@H]1CN(C)S(=O)(=O)c1cn(C)cn1 | 3.1 | · | -0.27 | 0
O=C(CSc1n[nH]c(-c2ccncc2)n1)Nc1cccc2ccccc12 | 2.6 | · | · | 35
CC1(C)OC(=O)C=C[C@@]2(C)C1C[C@@H](O)[C@]1(C)C2CC[C@@]2(C)[C@H](c3ccoc3)OC(=O)C3OC321 (stereo partly drawn) | · | -32 | 0.015 | 10
C[C@H]1CN([C@@H](C)CO)C(=O)c2cc(NC(=O)CCCCCC(=O)Nc3ccccc3N)ccc2O[C@@H]1CN(C)S(=O)(=O)c1ccc(Cl)cc1 | 1.3 | · | -0.31 | -5
COc1ccc(NC(=O)N(C)C[C@H]2Oc3ccc(NC(=O)NC(C)C)cc3C(=O)N([C@@H](C)CO)C[C@@H]2C)cc1 | 2.2 | -30 | -0.21 | -5
Cc1ccc(S(=O)(=O)Nc2cccc3c2O[C@H](CN(C)CC2CCCCC2)[C@@H](C)CN([C@@H](C)CO)C3=O)cc1 | 0.0 | -7 | -0.02 | -1

Part of the list above, as tab-separated lines:
mol	PD-1 reverse act	Hedgehog inh	YB-1 expression	MITF inhib
C[C@H]1CN([C@@H](C)CO)C(=O)Cc2cc(NC(=O)NC3CCCCC3)ccc2O[C@H]1CN(C)Cc1ccc2c(c1)OCO2	-1.8	-29	-0.13	-11
CC(C)NC(=O)N(C)C[C@@H]1Oc2ccc(NC(=O)Nc3ccc(C(F)(F)F)cc3)cc2CC(=O)N([C@@H](C)CO)C[C@@H]1C	-0.2	-6	0.017	-17
C[C@H](CO)N1C[C@H](C)[C@H](CN(C)S(=O)(=O)c2ccc(Cl)cc2)Oc2c(NC(=O)C3CCCCC3)cccc2C1=O	-0.4	103*	0.32	9

Screens (PubChem)

A portion of the library; count on the stated rates, not on these rows.
